# Screening results as filed in PubChem.
# VACV mCherry inh – qHTS for Stage-Specific Inhibitors of Vaccinia Orthopoxvirus: mCherry Reporter Primary qHTS; Vaccinia virus mCherry reporter infection, fluorescence; about a quarter of the inactives have no number; Potency, µM (highest dose often 36.5 µM), inactives show at the highest dose activity change, negative = inhibition, hits mostly inhibitors; 310,000 compounds, 0.63% hits; AID 720579, 2013; active = well fitted inhibition curve with a large enough effect; inconclusive = small, poorly fitted or top-dose-only effect; inactive = no such curve, though single readings can be large or run the other way; tested in A549 cells; note: nearly all actives have a fitted effect of over 35% in size; inactives centre near -10
# Vaccinia Venus – qHTS for Stage-Specific Inhibitors of Vaccinia Orthopoxvirus: Venus Reporter Primary qHTS. Vaccinia virus Venus reporter expression, fluorescence. Potency, µM (doses to about 36.5 µM), for inactives: at the top dose activity change, negative = inhibition, hits mostly inhibitors. 330,000 compounds, 0.46% hits. AID 720580, 2013; active means well fitted inhibition curve with a large enough effect; inconclusive means small, poorly fitted or top-dose-only effect; inactive means no such curve, though single readings can be large or run the other way; tested in A549 cells; note: nearly all actives have a fitted effect of over 30% in size; inactives centre near -10
# An asterisk follows results filed as active; i = inactive; ? = inconclusive; . = no result given; [ ] = remark or other dose. % is set by controls: 0 for no effect and ±100 for the full control effect; potency is the fitted concentration of half-maximal effect.
# The line under a structure holds: VACV mCherry inh	Vaccinia Venus
C[C@H]1CN([C@@H](C)CO)C(=O)c2cc(Br)cnc2O[C@H]1CN(C)S(=O)(=O)c1ccccc1F
→ -11%	-14%
COc1cc(NC(=O)CN2Cc3ccccc3C2=O)cc(OC)c1OC
→ -13%	-12%
COc1ccccc1OCc1ccc(C(=O)Nc2ccc(C)c(C)c2)o1
→ -13%	-18%
COc1cccc(/C=N/NC(=O)c2cc3c(OC)cccc3[nH]2)c1OC
→ -11%	-14%
CC1=C(C(=O)N(C(C)C)C(C)C)CC(CC(=O)NC2CCCC2)C(=O)N1CCCN1CCCC1=O (configuration not stated)
→ 11%	7%
O=[N+]([O-])c1ccc(COc2cccc3cccnc23)cc1
→ ?	-13%
O=C(Cc1cccc2ccccc12)NO
→ -22%	-12%
O=C(NNc1nc2ccccc2s1)c1ccc(F)cc1
→ -17%	-1%
COc1ccc(NC(=O)CSc2nnc(-c3ccco3)c(-c3ccco3)n2)cc1OC
→ i	-10%
O=C(CCc1nnc2n(Cc3ccccc3)c(=O)c3ccccc3n12)NCCCN1CCCCC1
→ -17%	-11%
CNC(=O)c1sc(Nc2cc(C)ccc2C)nc1C
→ -14%	-4%
CN(C)S(=O)(=O)c1cccc(C(=O)NC(=S)N(CCC#N)Cc2cccnc2)c1
→ 6%	-2%
COc1cc(C)ccc1OCCSc1nnc(-c2ccc(C)cc2)o1
→ 0%	-10%
COCCn1c(SCc2nc3cc(OC)c(OC)cc3c(=O)[nH]2)nnc1-c1ccncc1
→ .	-1%
COC(=O)[C@@]12C[C@@H](CC(=O)NCc3cccs3)C(=O)N(Cc3ccco3)C1=CCC(C)(C)C2
→ i	?

# Laid out differently: four of the compounds above.
O=C(NNc1nc2ccccc2s1)c1ccc(F)cc1
  VACV mCherry inh: -17%; Vaccinia Venus: -1%
COc1ccc(NC(=O)CSc2nnc(-c3ccco3)c(-c3ccco3)n2)cc1OC
  VACV mCherry inh: i; Vaccinia Venus: -10%
O=C(CCc1nnc2n(Cc3ccccc3)c(=O)c3ccccc3n12)NCCCN1CCCCC1
  VACV mCherry inh: -17%; Vaccinia Venus: -11%
CNC(=O)c1sc(Nc2cc(C)ccc2C)nc1C
  VACV mCherry inh: -14%; Vaccinia Venus: -4%

# Further compounds.
# The line under a structure holds: VACV mCherry inh	Vaccinia Venus
CN(Cc1ccccc1F)Cc1cc(=O)oc2cc(O)c(Cl)cc12
→ -14%	1%
O=[N+]([O-])c1cccc(C=NN=C2c3ccccc3-c3ccccc32)c1
→ i	-7%
Cc1cc(NC(=O)CN(C)C)c([N+](=O)[O-])cc1C
→ -11%	-11%
O=C(NCCc1csc(-c2cccc(F)c2)n1)c1ccco1
→ -10%	-5%
Cc1ccc(C)c(NC(=O)CN(C)C(=O)c2cc(-c3cccs3)nn2-c2ccccc2)c1
→ -14%	-16%
O=C(COc1ccccc1/C=C1\SC(=O)NC1=O)Nc1ccccc1
→ -2%	2%
COc1ccc2sc(N(Cc3cccnc3)C(=O)c3ccc4c(c3)OCCO4)nc2c1
→ -19%[7.34 µM]	-20%[7.34 µM]
COCCn1c(SCC(=O)Nc2cc(C)on2)nc2c(c1=O)SCC2
→ -10%	-7%
COc1ccc(-n2nnnc2C(c2cccc(OC)c2OC)N2CCN(C/C=C/c3ccccc3)CC2)cc1 (configuration not stated)
→ 6%	-13%
CCOC(=O)c1cccc(NC(=O)CCC(=O)N2CC(C)Oc3ccc(C)cc32)c1 (configuration not stated)
→ -5%	-9%
Cc1cc(C)nc(NC2=NCC(=O)N2c2ccc3c(c2)OCCO3)n1
→ ?	-10%
COc1ccc(/C=C(\C#N)C(=O)N2CCOCC2)cc1Br
→ i	-8%
CCCCSCCCNC(=O)CN1C(=O)COc2ccc(S(=O)(=O)N3CCCC3)cc21
→ -17%	-11%
COc1cccc(OCC(O)CN2CCN(c3ccc(Cl)cc3)CC2)c1 (configuration not stated)
→ -23%	-30%
Cc1cc(C)cc(-n2c(C)cc(/C=N/NC(=O)CN(c3c(C)cccc3C)S(C)(=O)=O)c2C)c1
→ .	-28%
CN(C)S(=O)(=O)c1cccc(NC(=O)CCCc2nc3ccccc3c(=O)[nH]2)c1
→ -9%	-12%
Cc1ccc(Cn2c(C3CCCN3c3nc(C)cs3)nc3cc(C(F)(F)F)ccc32)cc1 (configuration not stated)
→ i	-19%
CCCOc1ccc(NC(=O)C2CCCNC2=O)cc1 (configuration not stated)
→ -8%	-7%
Cc1c(C=Nc2ccc(S(=O)(=O)N(C)C)cc2)c(O)[nH]c(=O)c1C#N
→ -15%	-8%
CN1CCN(S(=O)(=O)c2cccc(C(=O)N(Cc3nnc(-c4ccccc4Cl)o3)C3CC3)c2)CC1
→ -2%	-12%
O=C(O)c1ccc(CSc2nc3c(c(=O)[nH]2)CCC3)cc1
→ 23%	5%
S=c1[nH]nc(-c2ccco2)n1/N=C/c1ccc(Cl)c(Cl)c1
→ -17%	-19%
O=[N+]([O-])c1ccc(OCCCCN2CCc3ccccc3C2)cc1
→ -13%	-3%
CC(C)c1c(CN(C)C(C)Cc2ccccc2)n(C)n(-c2ccccc2)c1=O (configuration not stated)
→ -6%	-21%
Cc1ccccc1SCCNC(=O)c1ccccc1Br
→ -10%	-12%
O=C(Nc1ccc(S(=O)(=O)N2CCCC2)cc1)c1cccs1
→ -4%	?
O=C(NCCCN1CCN(Cc2ccccc2)CC1)C1CCN(S(=O)(=O)N2CCCC2)CC1
→ -19%	-9%
Cc1ccccc1OCCCCCCN1CCNCC1
→ -15%	-16%
CCOC(=O)Cc1c(C)nc2cc(-c3ccc(C(C)(C)C)cc3)nn2c1C
→ -15%	0%
COc1cc(OC)c(S(=O)(=O)Nc2ccccc2N2CCOCC2)cc1NC(C)=O
→ -26%	-19%
CCOC(=O)CSc1nc(=O)n2cccc(C)c2n1
→ -12%	-14%
CCCCNC(=O)C1CCN(S(=O)(=O)c2ccc3c(c2)CC(C)N3C(=O)C2CC2)CC1 (configuration not stated)
→ -19%	-18%
COc1ccccc1C(=O)NC(CCSC)C(=O)NCC(c1cccs1)N1CCOCC1 (configuration not stated)
→ -7%	-11%
COc1cc(C#Cc2c(-c3cncn3C)n(C)c3ccc(-c4ccc(OC)c(OC)c4)cc23)cc(OC)c1
→ -14%	-17%
O=C(COc1ncnc2c(Cl)cc(Cl)cc12)Nc1cc([N+](=O)[O-])ccc1Cl
→ -15%	-15%
N#Cc1c(N2CCN(c3ccc(F)cc3)CC2)nc(N)c2c(N)nc3c(c12)CC(=O)N3C1CC1
→ -6%	-5%
CCOC(CNc1cc(C)nc2c(-c3ccccc3OC)c(C)nn12)OCC
→ -11%	-14%
Cc1ccc(CN2CCOc3ccc(CN4CCC(O)(c5cccnc5)CC4)cc3C2)cc1
→ -28%	-21%
Cc1ccc(Nc2cnn(C34CC5CC(CC(CC(=O)O)(C5)C3)C4)c(=O)c2Cl)cc1
→ -10%	-11%
COc1ccc(-n2cnnc2SCC(=O)Nc2ccc(N3CCOCC3)cc2)cc1
→ -13%	-5%
CCN1C(=O)[C@H]2[C@H]3CN=C(SCc4ccc(C(=O)OC)cc4)N3[C@@](C)(C(=O)OC)[C@H]2C1=O
→ -20%	0%
CC1=C(C#N)S(=O)(=O)C(C#N)C(c2ccccc2)C1 (configuration not stated)
→ i	12%
COc1cccc(NC(=O)CCc2c(C)nc3c4cccnc4nn3c2C)c1
→ -11%	-8%
CC12CCC(C(=O)N3CCCCCC3)(OC1=O)C2(C)C (configuration not stated)
→ .	-7%
CCN1CCc2c(sc(NC(=O)c3ccc(S(=O)(=O)N(CC)c4ccccc4)cc3)c2C(N)=O)C1
→ ?	11µM*

# (more compounds)
canonical_smiles | VACV mCherry inh | Vaccinia Venus
O=C(O)c1cccc(-c2nc3ccccc3[nH]2)c1 | -10% | -16%
CN(C)S(=O)(=O)c1cccc(-n2sc3ccccc3c2=O)c1 | -1% | -20%
CCc1cccc(NS(=O)(=O)c2c(C)nc3scc(C)n3c2=O)c1 | ? | -17%
CCCNC(=O)CCn1nc(-c2ccc(Cl)cc2)c2ccccc2c1=O | 0% | -7%
Cc1ccc(N2CCN(CCCN3C(=O)C4CCCN4C3=O)CC2)cc1 (configuration not stated) | -5% | -9%
CCOC(=O)[C@]12CCC=C1N(Cc1ccco1)C(=O)[C@H](CC(=O)N1CCOCC1)C2 | 12% | 3%
Cc1c(CC(=O)NCC(=O)O)c(=O)oc2cc3oc4c(c3cc12)CCCC4 | -11% | 0%
CCOC(=O)C1CCN(C(=O)C2CCN(S(=O)(=O)c3ccc4ccccc4c3)CC2)CC1 | -17% | -28%
CCCn1c(SCC(=O)Nc2cccc(F)c2)nc(O)cc1=O | i | 2%
CCOc1ccc(N(C(=O)c2cnccn2)C(C(=O)NC2CCCCC2)c2ccc(O)cc2)cc1 (configuration not stated) | -21% | -10%
O=C(NCc1ccccn1)c1c(O)c2cccc3c2n(c1=O)CC3 | -13%[1.46 µM] | -12%
Cc1ccc(C(=O)NC(=S)Nc2ccc(S(=O)(=O)N(C)c3ccccc3)cc2)cc1 | . | -12%
Cc1ccccc1-c1noc(-c2nnn(-c3ccccc3C)c2N)n1 | -2%[7.34 µM] | -1%[7.34 µM]
CC1(C)CC2(OC2c2ccccc2)C(=O)c2ccccc21 (configuration not stated) | i | -9%
CC1CCC(NC(=O)c2ccc3c(c2)N(Cc2cccc(F)c2)C(=O)c2ccccc2S3)CC1 (configuration not stated) | -22% | -22%
COc1ccc(Cc2nnc(SCC(=O)Nc3cc(Cl)ccc3OC)[nH]c2=O)cc1 | -11% | -5%
CCOC(=O)/C=c1\s/c(=C\c2ccc(C)cc2)c(=O)n1CC(=O)NCc1ccco1 | i | -13%
O=C(c1ccc(CS(=O)(=O)c2ccccc2)o1)N1CCN(c2ccccc2)CC1 | -11% | -13%
O=c1c2sc3nc(N4CCOCC4)c4c(c3c2nnn1Cc1ccccc1)CCCC4 | . | ?
Cc1ccc(CN2CCC2(C)C(=O)NC(C)C)cc1 (configuration not stated) | -11% | -12%
COc1ccc(-c2nnc(SCC#CCO)o2)cc1OC | ? | -24%
Cc1ccc(S(=O)(=O)c2nc(-c3ccccc3Cl)oc2NCCCN2CCOCC2)cc1 | -8% | -6%
CCOC(=O)C1(Cc2cccc(F)c2)CCN(CC(O)CO)CC1 (configuration not stated) | i | 1%
COc1ccc(C)cc1S(=O)(=O)N(CC(=O)N1CCOCC1)Cc1ccccc1 | -5% | 1%

# One compound at a time (already shown). Order of screens: VACV mCherry inh	Vaccinia Venus
# O=c1c2sc3nc(N4CCOCC4)c4c(c3c2nnn1Cc1ccccc1)CCCC4 is listed with .	?
# COc1ccc(-c2nnc(SCC#CCO)o2)cc1OC is listed with ?	-24%
# CC1CCC(NC(=O)c2ccc3c(c2)N(Cc2cccc(F)c2)C(=O)c2ccccc2S3)CC1 (configuration not stated) is listed with -22%	-22%

# Later entries:
canonical_smiles | VACV mCherry inh | Vaccinia Venus
Cc1ccccc1CSc1ncc(Cl)c(C(=O)NCc2ccccc2)n1 | -3% | -4%
Cc1nc2c(C(=O)NCCC(C)C)c[nH]n2c(=O)c1Cc1ccccc1F | -10% | -4%
COc1ccccc1C(=O)NCCC(=O)N1CCCC(C)C1 (configuration not stated) | i | -2%
CCOC(=O)[C@H]1[C@H]2COc3ccc(C)cc3[C@@H]2N2C(=O)CN(Cc3ccccc3)C(=O)[C@@]12C | i | -8%
O=C1Nc2c(Br)cc(Br)c3cccc1c23 | i | -3%
COc1ccc(N2CCN(S(=O)(=O)c3ccc(-c4cnc(C5CC5)o4)cc3)CC2)cc1 | -19% | -8%
O=C1CCCc2oc3ccc(NS(=O)(=O)c4cccc5cccnc45)cc3c21 | -12% | -10%
Cc1cc(Cl)c2oc(C(=O)N(C)C3CCOC3)c(C)c2c1 (configuration not stated) | -26% | ?
COc1cccc(NCc2ccc([N+](=O)[O-])s2)c1 | -5% | 8%
c1cnc(-c2nnc3n2CCCCC3)cn1 | i | -10%
COc1ccc(-c2noc(-c3ccc(N4CCCCC4C)c([N+](=O)[O-])c3)n2)cc1OC (configuration not stated) | 4% | -1%
COc1ccc(/C(C)=N/NC(=O)CNC(=O)CCc2ccccc2)c(OC)c1 | -14% | ?
O=C(CCN1CCOCC1)Nc1cc(C(=O)Nc2ccccc2F)ccc1N1CC2CC(C1)c1cccc(=O)n1C2 (configuration not stated) | -2% | 2%
COc1ccc(-n2cc(C(=O)NCc3cccc(OC)c3)c3ccccc3c2=O)cc1 | i | -10%
Cc1cccc(N(CC(=O)N/N=C/c2cc([N+](=O)[O-])ccc2Cl)S(C)(=O)=O)c1C | . | ?
COc1ccc(CNC(=O)c2ccc3nccnc3c2)cc1 | i | -11%
NC(=O)COc1ccc(/C=N\NC(=O)CC(=O)NCCc2ccccc2)cc1 | 1% | 3%
O=C(O)CNC(=O)C(c1ccccc1)c1ccccc1 | -6% | -15%
O=C(CC1N=C2c3ccccc3N=C(SCc3ccc(Cl)cc3)N2C1=O)NCc1cccs1 (configuration not stated) | -11% | -10%
CCc1c(C(=O)Nc2cc(C)cc(C)c2)[nH]c(C)c1C(C)=O | -22% | -8%
